CDC25B-CDK2 inh = primary biochemical HTRF screen for blockers of M-phase inducer phosphatase 2 binding to CDK2/cyclin A; P30305+P24941; 94,000 compounds, 0.72% hits; z-score (test concentration not listed); HTRF CDC25B-CDK2/CyclinA binding, anti-His/anti-Flag; hits give high values;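 further: score is relative to mean and SD of negative controls; strong numbers were not always called active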
TAR Tat displ = TAR RNA-Tat peptide displacers, HIV-1, primary screen, biochemical, FRET, FAM/TAMRA-labeled Tat; 100,000 compounds, 0.6% hits; z-score (test concentration not listed); HIV-1 TAR RNA, Tat peptide displacement FRET; hits give high values; AID 1259389, 2018;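 further: score is relative to mean and SD of negative controls; some compounds called inactive have numbers as strong as hits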
* marks the source's active call; other numbers are inactive results; · = no result given; & = joins results of further samples.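 How the source made its calls: active means z-score from 3 up in half or more of its runs; inactive means the rest.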

SMILES	CDC25B-CDK2 inh	TAR Tat displ
COC(=O)C1=CCCN(C)C1	-0.51	2.13
N#CC1=C(SCc2ccccc2)SCNC1=O	-2.06	-0.44
COC(=O)C1CC2CCCN2C12C(=O)Nc1ccccc12 (configuration not stated)	5.2	0.68
Cc1nn(-c2ccccc2)c2c1C(c1cccc(Br)c1)SCC(=O)N2 (configuration not stated)	-1.57	4.2
O=c1cccc2n1C[C@H]1CNCC2C1	·	1.34
C=C1[C@@H](C)[C@H]2[C@H](Cc3ccccc3)NC(=O)[C@]23OC(=O)/C=C/[C@H](O)CCC[C@@H](C)C/C=C/[C@H]3[C@@H]1O	·	1.94
CO[C@@H]1C=C2CCN(C)[C@@H]2C2c3cc4c(cc3C(=O)OC21)OCO4 (some centres not stated)	·	1.92
O=C(O)COc1ccc(Cl)cc1Cl	·	0.43
CSc1nc(-c2ccc(Cl)cc2)nn1C(=O)N(C)C	-0.77	·
CCCCCCC(C)(C)c1ccc([C@@H]2C[C@@H](O)CC[C@H]2CCCO)c(O)c1	·	1.14
c1ccc(CCCN2CCN(CCOC(c3ccccc3)c3ccccc3)CC2)cc1	-1.15	·
Nc1ncnc2c1ccn2[C@@H]1O[C@H](CO)[C@H](O)C1O (some centres not stated)	·	1.39
c1coc(CNCCc2c[nH]c3ccccc23)c1	13.5*	-0.14
Cc1cccc(N2CCc3c2nc2ccccc2c3N)c1	0.63	-3.85
CO/N=[N+](\[O-])C(CN(CCN(CC(/[N+]([O-])=N/OC)/[N+]([O-])=N\OC)[N+](=O)[O-])[N+](=O)[O-])/[N+]([O-])=N/OC (configuration not stated)	-2.36	·
O=C1CC(c2ccccc2)c2cnn(-c3nc4ccccc4s3)c2N1 (configuration not stated)	·	-0.11
COC1=CC(=O)O[C@@H](CCc2ccc3c(c2)OCO3)C1	·	0.79
CCCCOC(=O)C1=C(N)OC2=C(C(=O)CC(C)(C)C2)C12C(=O)N(CC(=O)OC)c1ccccc12 (configuration not stated)	-0.71	·
CSc1ccc(CN2CCN(Cc3cccc(Cl)c3)CC2)cc1	1.42	-3.23
O=C1NC(=O)C(=CC2CC=CCC2)C(=O)N1 (configuration not stated)	-1.77	·
CC(CO)NC(=O)C1C=C2c3cccc4[nH]cc(c34)C[C@H]2N(C)C1 (some centres not stated)	·	-4
O=C1C2CCN(CC2)C1Cc1ccc2c(c1)OCO2 (configuration not stated)	0.75	·
COc1ccc([C@H]2Oc3c(I)c(OC)cc(OC)c3C[C@@H]2O)cc1OC	·	-1.64
Nc1nc(N)nc(Nc2nc(N)nc(N)n2)n1	-0.15	·
C/C=C/c1ccc2c(c1)OCO2	·	2.82

Next part.
SMILES	CDC25B-CDK2 inh	TAR Tat displ
CCC(C)[C@H]1O[C@]2(C=C[C@@H]1C)C[C@@H]1C[C@@H](C/C=C(\C)[C@@H](OC3C[C@H](OC)C(O[C@H]4C[C@H](OC)[C@@H](O)[C@H](C)O4)[C@H](C)O3)[C@@H](C)/C=C/C=C3\CO[C@@H]4[C@H](O)C(C)=C[C@@H](C(=O)O1)[C@]34O)O2 (some centres not stated)	·	2.39
Cc1[nH]nc2c1C(c1cccc(F)c1F)SCC(=O)N2 (configuration not stated)	-1.29	0.74
COc1ccc(C2c3cccn3-c3ccccc3CN2C(=O)NC2CCCC2)cc1OC (configuration not stated)	·	0.79
CCOc1ccc(C2SCC(=O)Nc3c2c(=O)[nH]n3C(C)C)cc1 (configuration not stated)	-1.4	0.97
COc1ccccc1NC(=O)N1Cc2ccccc2-n2cccc2C12CCN(C)CC2	1.05	-0.64
CSc1ccc(C2SCC(=O)Nc3c2c(C)nn3-c2nc3ccccc3s2)cc1 (configuration not stated)	-2.45	-1.51
O=c1cccc2n1CC1CC2CN(Cc2nnc(-c3ccc4c(c3)OCO4)o2)C1 (configuration not stated)	-1.21	0.76
N#CC1=C(N)Oc2c(c(=O)oc3ccccc23)C1c1cccc(OCc2ccccc2)c1 (configuration not stated)	-1.62	·
CN(C)c1ccc(C2c3cccn3-c3ccccc3CN2C(=O)NC2CCCC2)cc1 (configuration not stated)	·	1.63
CC12CN3CC(C)(CN(C1)C3c1c[nH]c3ccccc13)C2 (configuration not stated)	-0.36	·
CCCCCn1cc(C(=O)Cc2ccccc2OC)c2ccccc21	·	1.68
Cc1nn(-c2nc3ccccc3s2)c2c1C(c1cccc(F)c1F)SCC(=O)N2 (configuration not stated)	-1.78	-0.4
C[C@]12CCC3C(CC[C@H]4CC(=O)CC[C@]34C)C1CCC2=O (some centres not stated)	·	1.24
CCN(CC)CC(O)c1c[nH]c2ccccc12 (configuration not stated)	1.81	0.04
CCCC12CN3CC(C)(CN(C1)C3(C)CC)C2=O (configuration not stated)	-1.37	·
Fc1ccc(C(OCCN2CCN(CCCc3ccccc3)CC2)c2ccc(F)cc2)cc1	-0.76	·
CC1CCC(NCCc2ccc3c(c2)OCO3)CC1 (configuration not stated)	-0.67	0.72
c1cc2c(c(-c3ccsc3)c1)CCNC2	-1.13	0.36
O=C1NC(=O)C(O)(c2c[nH]c3ccccc23)C(=O)N1	-0.11	1.18
CC1(C)CC(=O)C2=C(C1)OC(N)=C(C(=O)OC(C)(C)C)C21C(=O)Nc2ccccc21 (configuration not stated)	0.65	·
COc1cc(CNCCc2ccc(OC)c(OC)c2)cc(OC)c1	-0.58	1.48
Nc1ccccc1C(=O)c1cccc(Cl)c1	-1.29	-0.59
CN1C2CCC1CC(OC(=O)c1ccc(Cl)cc1)C2 (configuration not stated)	-0.66	·
O=C(c1ccco1)c1cn(Cc2ccccc2Cl)c2ccccc12	0.56	-0.31
Cc1nn(-c2ccc(F)cc2)c2c1C(c1cccs1)SCC(=O)N2 (configuration not stated)	-2.62	0.93

15 entries out of the list, sorted by SMILES length, low to high:
SMILES	CDC25B-CDK2 inh	TAR Tat displ
c1cc2c(c(-c3ccsc3)c1)CCNC2	-1.13	0.36
CCN(CC)CC(O)c1c[nH]c2ccccc12 (configuration not stated)	1.81	0.04
CC1CCC(NCCc2ccc3c(c2)OCO3)CC1 (configuration not stated)	-0.67	0.72
CCCC12CN3CC(C)(CN(C1)C3(C)CC)C2=O (configuration not stated)	-1.37	·
COc1cc(CNCCc2ccc(OC)c(OC)c2)cc(OC)c1	-0.58	1.48
O=C(c1ccco1)c1cn(Cc2ccccc2Cl)c2ccccc12	0.56	-0.31
O=C1NC(=O)C(O)(c2c[nH]c3ccccc23)C(=O)N1	-0.11	1.18
CC12CN3CC(C)(CN(C1)C3c1c[nH]c3ccccc13)C2 (configuration not stated)	-0.36	·
Cc1nn(-c2ccc(F)cc2)c2c1C(c1cccs1)SCC(=O)N2 (configuration not stated)	-2.62	0.93
CCOc1ccc(C2SCC(=O)Nc3c2c(=O)[nH]n3C(C)C)cc1 (configuration not stated)	-1.4	0.97
C[C@]12CCC3C(CC[C@H]4CC(=O)CC[C@]34C)C1CCC2=O (some centres not stated)	·	1.24
CSc1ccc(C2SCC(=O)Nc3c2c(C)nn3-c2nc3ccccc3s2)cc1 (configuration not stated)	-2.45	-1.51
Cc1nn(-c2nc3ccccc3s2)c2c1C(c1cccc(F)c1F)SCC(=O)N2 (configuration not stated)	-1.78	-0.4
N#CC1=C(N)Oc2c(c(=O)oc3ccccc23)C1c1cccc(OCc2ccccc2)c1 (configuration not stated)	-1.62	·
CCC(C)[C@H]1O[C@]2(C=C[C@@H]1C)C[C@@H]1C[C@@H](C/C=C(\C)[C@@H](OC3C[C@H](OC)C(O[C@H]4C[C@H](OC)[C@@H](O)[C@H](C)O4)[C@H](C)O3)[C@@H](C)/C=C/C=C3\CO[C@@H]4[C@H](O)C(C)=C[C@@H](C(=O)O1)[C@]34O)O2 (some centres not stated)	·	2.39

Next records follow:
SMILES	CDC25B-CDK2 inh	TAR Tat displ
O=C(CNC1CCCCC1)c1ccc(O)c(O)c1	-3.01	1.96
O=C(Nc1ccccc1)N1Cc2ccccc2-n2cccc2C1c1cccs1 (configuration not stated)	·	-1.24
Cc1ccc(C(CNC(=O)c2oc3ccc(F)cc3c2C)N2CCCC2)o1 (configuration not stated)	-0.62	0.38
CCN1C[C@]2(C)CCC(OC)[C@@]34C5C[C@@H]6CC[C@@](O)(C5C(=O)O6)[C@@H](C(O)C23)[C@@H]14 (some centres not stated)	·	1.86
COc1cc2c3c(c1OC)-c1cc(O)ccc1CC3NCC2 (configuration not stated)	3.37	1.83
CCCC12CN3CC(CCC)(CN(C1)C3c1ccccn1)C2=O (configuration not stated)	-1.29	2.06
C[C@@H]1O[C@@H](O[C@H]2C[C@@H](O)[C@]3(CO)C4C(CC[C@]3(O)C2)[C@@]2(O)CC[C@H](C3=CC(=O)OC3)[C@@]2(C)C[C@H]4O)[C@H](O)[C@H](O)[C@H]1O (some centres not stated)	·	-0.17
CNc1nc(N2CCN(C)CC2)c2cnn(C)c2n1	·	1.96
Cc1[nH]nc2c1C(c1ccc(OCc3ccc(Cl)cc3)cc1)SCC(=O)N2 (configuration not stated)	-1	2.07
CC(C)CC(N(C)C)C1(c2ccc(Cl)cc2)CCC1 (configuration not stated)	·	1.01&0.73&-0.49
CC(O)(CS(=O)(=O)c1ccc(F)cc1)C(=O)Nc1ccc(C#N)c(C(F)(F)F)c1 (configuration not stated)	0.15	-0.61
N#CC(O[C@@H]1O[C@H](CO[C@@H]2O[C@H](CO)[C@@H](O)[C@H](O)[C@H]2O)[C@@H](O)[C@H](O)[C@H]1O)c1ccccc1 (some centres not stated)	·	2.28
c1ccc2cc(CNCCc3c[nH]c4ccccc34)ccc2c1	-1.45	·
CCCCc1nc2ccccc2c(=O)n1-c1cccc(O)c1	0.54	·
COc1ccc(OC)c(C2SCC(=O)Nc3c2c(C)nn3-c2nc3ccccc3s2)c1 (configuration not stated)	-1.54	1.46
OC(Cc1ccccc1)(Cc1ccccc1)C1CN2CCC1CC2 (configuration not stated)	-1.19	1.04
CN(C)Cc1ccccc1OC(=O)N(C)C	-1.15	-0.67
COc1ccc(C(=O)O[C@H]2CC[C@@]3(C)[C@@H]4CC[C@H]5[C@]6(O)C[C@H](O)[C@@]7(O)[C@@H](CN8C[C@@H](C)CC[C@H]8[C@@]7(C)O)[C@]6(O)C[C@@]53O[C@]24O)cc1OC	·	1.94
Fc1ccc(N2CCN(Cc3c(F)cccc3F)CC2)cc1	·	0.44
Cc1nn(-c2ccc(F)cc2)c2c1C(c1ccc(F)cc1F)SCC(=O)N2 (configuration not stated)	-2.05	1.29
CN[C@@H](C)[C@@H](O)c1ccccc1	·	1.48
O=C(Nc1ncccc1O)c1c(O)c2c(n(Cc3ccco3)c1=O)CCCC2	-0.9	·
COc1ccc(Br)cc1C1SCC(=O)Nc2c1c(C)nn2-c1ccc(F)cc1 (configuration not stated)	-0.06	0.29
C[C@]12CCC(=O)C=C1CCC1C2CC[C@@]2(C)C1CC[C@@H]2O (some centres not stated)	·	2.57
CN1C2CCC1CC(O)C2 (configuration not stated)	·	12.8

Later entries.
SMILES	CDC25B-CDK2 inh	TAR Tat displ
C=CCOC(=O)C1C2NC(=S)NC1(C)Oc1ccccc12 (configuration not stated)	-1.79	·
CCCC12CN3CC(C)(CN(C1)C3c1c(C)[nH]c(=O)[nH]c1=O)C2=O (configuration not stated)	-1.94	-0.79
CNC(=O)Oc1cccc2c1OC(C)(C)C2	·	0.22
CCC1(CC)C(=O)C=CNC1=O	0.7	1.36
C/C=C1/CN2CC[C@]34C(=C(C=O)[C@H]1C[C@H]23)Nc1ccccc14	·	-0.15
COc1ccc(OC)c(NC(=O)N2Cc3ccccc3-n3cccc3C2c2cccs2)c1 (configuration not stated)	·	0.36
C=C1[C@@H](C)[C@H]2[C@H](Cc3ccccc3)NC(=O)[C@]23OC(=O)/C=C/C(=O)CCC[C@@H](C)C/C=C/[C@H]3[C@@H]1O	·	1.52
C[N+]1(C)CCOC(O)(c2ccc(-c3ccc(C4(O)C[N+](C)(C)CCO4)cc3)cc2)C1 (configuration not stated)	-1.73	·
CCC(C)n1[nH]c(=O)c2c1NC(=O)CSC2c1ccc(OC(C)C)cc1 (configuration not stated)	-0.47	-0.9
CC(C)C1c2cccn2-c2ccccc2CN1C(=O)Nc1ccccc1Br (configuration not stated)	·	-0.36
C=C(C)[C@H]1Cc2c(ccc3c2O[C@@H]2COc4cc(OC)c(OC)cc4[C@@H]2C3=O)O1	-1.64	3.11
CCC(C)C(OC(C)=O)C(=O)O[C@H]1[C@H](O)C2[C@@]3(C)C=CC(=O)C(C)(C)C3C[C@@H](OC(=O)C(O)C(C)C)[C@@]2(C)[C@@]23O[C@@H]2C[C@@H](c2ccoc2)[C@]13C (some centres not stated)	·	2.7
COCc1cc(C2SCC(=O)Nc3c2c(=O)[nH]n3C2CCOC(C)(C)C2)ccc1OC (configuration not stated)	0.25	2.73
COc1cc2occc2c2oc(=O)ccc12	·	0.75
N[C@@H](Cc1ccc(N(CCCl)CCCl)cc1)C(=O)O	·	1.1
CN1CCN(C(=O)Cc2c(C(=O)O)n(C)c3ccccc23)CC1	1.41	·
C/C(C=C(C#N)C#N)=C/C(=C=N)C#N	-4.7	·
NCC(O)c1ccc(O)cc1 (configuration not stated)	-0.54	1.03
Cn1c(O)c(C(c2ccncc2)c2c(O)n(C)c(=S)n(C)c2=O)c(=O)n(C)c1=S	-1.64	·
CCCCCOc1ccc(C2SCC(=O)Nc3c2c(=O)[nH]n3C2CCOC(C)(C)C2)cc1 (configuration not stated)	-0.45	-0.23
CCOc1ccc(C2SCC(=O)Nc3n[nH]c(C)c32)cc1OC (configuration not stated)	-1.03	2.89
CC(C)CCCC1(C)C=Cc2c(O)c3c(c(CCC(C)C)c2O1)OC12C(CC4CC1C(C)(C)OC2(CCC(C)C(=O)O)C4O)C3=O (configuration not stated)	·	0.39

Not all compounds are listed. The share of hits here may be higher or lower than overall.
